# Source: PubChem BioAssay
# gsp antag = qHTS for Antagonists of gsp, the Etiologic Mutation Responsible for Fibrous Dysplasia/McCune-Albright Syndrome: qHTS. gsp-mutant cells, cAMP HTRF, 30 min; control for the full effect not named in the record. Potency, µM (titrated, usually from 76.9 µM), for inactives: at the top dose activity change, negative = inhibition, usual class: inhibitors. actives 0.4% (n = 340,000). AID 624288, 2012; active = falling curve of any shape with a large fitted effect; inconclusive = falling curve, mostly with a smaller effect; inactive = flat or rising curve; cell line not stated here;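 note: intracellular cAMP measured with PDE inhibitor Ro 20-1724 present during compound exposure; potency is the fitted concentration of half-maximal effect; % is set by controls: 0 for no effect and ±100 for the full control effect; nearly all actives have a fitted effect of over 65% in size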
#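 Measurement of cellular cAMP by homogeneous time-resolved fluorescence following a 30 min compound exposure at 37C. The PDE inhibitor […] was present throughout; the assay buffer was DPBS with 0.05% BSA and 0.005% Tween 20.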
# Menin MLL FP FL = qHTS Assay for Inhibitors Targeting the Menin-MLL Interaction in MLL Related Leukemias: Competition With Fluorescein Labeled MLL-derived Peptide; AID 1766, 2009; Fluorescence polarization, fluorescein-MLL peptide displacement from menin; FP activity change, % at 61.4 µM; 290,000 tested, under 10 active; inconclusive = falling polarisation curve, or a change in total fluorescence; inactive = total fluorescence flat and polarisation flat or rising; no compound was filed as active; the % refers to the polarisation; negative = inhibition;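 note: % of control where 0% means no effect; inhibitors lower the polarisation; unlabelled MLL peptide was the positive control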
# Sfp inh = qHTS Assay for Inhibitors of Bacillus subtilis Sfp phosphopantetheinyl transferase (PPTase). 4'-phosphopantetheinyl transferase ffp (Bacillus subtilis), Q9F4F7. Biochemical Sfp PPTase activity, qHTS. Potency, µM, for inactives: max response, negative = inhibition, actives largely listed as inhibitors. actives 3.5% (n = 310,000). AID 1490, 2009; active = well fitted inhibition curve with a large enough effect; inconclusive = small, poorly fitted or top-dose-only effect, or another doubt; inactive = no such curve, though single readings can be large or run the other way;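 note: the enzyme is Sfp with the accession as filed and its product quenches rhodamine fluorescence; potency is the fitted concentration of half-maximal effect; 0% = enzyme reaction without inhibitor and -100% = no enzyme wells; top concentration of the series not given in the record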
#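 Compounds were incubated with enzyme (final 15 nM) for 15 min at room temperature before substrate addition started the reaction. Fluorescence at 525 nm excitation, 598 nm emission was recorded immediately and after 30 minutes.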
# gsp agonist = qHTS for Agonist of gsp, the Etiologic Mutation Responsible for Fibrous Dysplasia/McCune-Albright Syndrome: qHTS. Potency, µM (highest dose often 76.9 µM), for the others: at the top dose activation (cAMP increase), actives largely listed as activators. gsp mutant cells, cAMP HTRF, 30 min; control for the full effect not named in the record. AID 624287, 2012. actives 0.13% (n = 340,000); active = well fitted activation curve with a large enough effect; inconclusive = small, poorly fitted or top-dose-only effect, or another doubt; inactive = no such curve, though single readings can be large or run the other way; cell line not stated here;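 note: phosphodiesterase inhibitor Ro 20-1724 added with compounds to block cAMP breakdown; potency is the fitted concentration of half-maximal effect; nearly all actives have a fitted effect of over 60% in size; about a fifth of the inactives were tested at one dose only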
#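 Cells in DMEM/10% FBS with G418 were pretreated with compounds in DMSO plus […] (300 uM stock) for 30 min at 37C. cAMP was measured by HTRF (cAMP-d2 plus anti-cAMP antibody-K) after 30 min at room temperature.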
# ClpP mod = qHTS Assay for Activators of ClpP; purified B. subtilis ClpP, FRET peptide cleavage, 20 min; Potency, µM (highest dose often 57.5 µM), inactives show at the top dose activity change, negative = active; actives 1.9% (n = 340,000); AID 651965, 2013; active = well fitted falling curve with a large enough effect; inconclusive = small, poorly fitted or top-dose-only effect; inactive = no such curve, though single readings can be large or run the other way; note: potency is the fitted concentration of half-maximal effect; the source files actives as falling curves though it sought activators and does not explain the sign; nearly all actives have a fitted effect of over 65% in size; many hits overshoot -100%
# Target sequence (P80244 whole entry, looked up): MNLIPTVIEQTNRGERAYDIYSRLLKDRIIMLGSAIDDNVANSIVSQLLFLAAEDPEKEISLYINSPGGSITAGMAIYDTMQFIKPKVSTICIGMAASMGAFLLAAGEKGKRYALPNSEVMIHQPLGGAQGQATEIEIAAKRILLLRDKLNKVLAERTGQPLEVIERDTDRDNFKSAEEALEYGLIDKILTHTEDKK
#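 FRET quenching reversal measured ClpP activation: 10 microg/mL B. subtilis ClpP at pH 8 with the FRET-FV decapeptide, read at 430 nm after 320 nm excitation. The 20-min minus 0-min signal was scaled between DMSO/no-enzyme wells and ADEP (5.8 microM final).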
# TRPV1 PAM = HTS Assay for Compounds that Act as Potentiators of the Vanilloid Receptor 1; potentiation, % at 8.33 µM; actives 0.02% (n = 320,000); AID 540277, 2011; TRPV1-expressing cells, Fluo-8 calcium influx, capsaicin EC20 potentiation; host cell line not named in the record; control for the full effect not named in the record; Transient receptor potential cation channel subfamily V member 1 (Homo sapiens), Q8NER1; active means potentiation above 80%; inconclusive means 30% to 80%; inactive means below 30%; note: 0% is about no effect
# Target sequence (Q8NER1 whole entry, looked up): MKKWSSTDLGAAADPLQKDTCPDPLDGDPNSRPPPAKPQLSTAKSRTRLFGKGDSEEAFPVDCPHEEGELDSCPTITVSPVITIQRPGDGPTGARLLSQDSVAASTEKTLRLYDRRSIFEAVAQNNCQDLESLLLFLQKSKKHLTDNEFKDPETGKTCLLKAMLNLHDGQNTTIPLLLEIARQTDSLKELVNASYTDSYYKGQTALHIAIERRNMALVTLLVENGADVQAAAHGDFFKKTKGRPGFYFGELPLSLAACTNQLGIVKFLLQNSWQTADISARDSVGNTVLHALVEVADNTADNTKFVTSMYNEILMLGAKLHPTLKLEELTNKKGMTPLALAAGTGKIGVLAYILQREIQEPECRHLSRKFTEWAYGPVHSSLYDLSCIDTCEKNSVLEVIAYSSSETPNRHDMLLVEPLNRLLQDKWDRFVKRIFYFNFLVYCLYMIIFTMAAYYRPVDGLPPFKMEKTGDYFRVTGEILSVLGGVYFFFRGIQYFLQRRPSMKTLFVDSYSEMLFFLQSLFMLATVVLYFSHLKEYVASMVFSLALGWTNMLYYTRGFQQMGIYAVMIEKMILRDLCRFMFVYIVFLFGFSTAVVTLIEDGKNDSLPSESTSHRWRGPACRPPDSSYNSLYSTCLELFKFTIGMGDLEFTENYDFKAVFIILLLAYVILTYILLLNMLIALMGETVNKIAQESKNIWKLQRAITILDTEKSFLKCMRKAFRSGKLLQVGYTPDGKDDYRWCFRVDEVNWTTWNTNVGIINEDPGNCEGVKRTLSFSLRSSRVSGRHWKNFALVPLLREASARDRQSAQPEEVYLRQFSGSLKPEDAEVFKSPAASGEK
#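 Fluo-8 calcium influx in TRPV1-expressing cells, kinetic read (ex 480/em 520 nm). Compound added and read 3 min for agonist activity, followed by capsaicin at EC20 final and 2 min further read for enhancement.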
# D2 PAM = Beta-Arrestin HTS for Positive Allosteric Modulators of the Human D2 Dopamine Receptor: Potentiators. actives 0.23% (n = 360,000). DiscoveRx D2 beta-arrestin cells, luminescence, 90 min; 100% = 57 uM dopamine signal. potentiation, % (test concentration not listed). AID 624464, 2012. D(2) dopamine receptor (Homo sapiens), P14416; active = potentiation of 50% or more; inconclusive = 30% to 50%; inactive = 30% or less;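 note: compound concentration not given in the record; tested on top of an EC20 dose of dopamine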
#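 PathHunter D2 cells, attached overnight at 37 deg C, received compound in DMSO plus dopamine at EC20 (50 nM final) for 90 min at 37 deg C. Beta-arrestin recruitment was read as luminescence after 1 h with detection reagent at ambient temperature.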
# The depositor's hits bear a star; ? = inconclusive; . = not tested or not shown; & = joins results of further samples; [ ] = dose if it differs, or a comment.
SMILES	gsp agonist	gsp antag	Sfp inh	Menin MLL FP FL	ClpP mod	TRPV1 PAM	D2 PAM
COC(=O)C(NS(=O)(=O)c1ccc(NC(C)=O)cc1)C(C)C (stereo unspecified)	-31%[inhibitor]	0%	-2%	4.1	0.4%	.	-24
Cc1cccc(NC(=O)CSCC(=O)N(C)CC(=O)Nc2cccc(F)c2)c1	-3%[15.4 µM]	0%	.	.	-3.2%	13	-9
CC(NC(=O)CCCN1C(=O)c2ccccc2C1=O)c1ccc2c(c1)CCCC2 (stereo unspecified)	3%	-2%	16%	5.3	0.1%	6	-12
Cc1ccc(C)c(S(=O)(=O)N2CCN(CC(=O)NC(C)c3ccccc3)CC2)c1 (stereo unspecified)	1%	-1%	.	.	0.2%	-12	0
O=C(CSc1ccccc1)N1CCC(N2CCC(C(=O)N3CCCC3)CC2)CC1	-72%[inhibitor]	11%	12%	0.9	-0.3%	-2	-6
S=C(Nc1ccc(Cl)cc1)N1CCN(C2CCCCC2)CC1	-35%[inhibitor]	-1%	6%	-8.7	-0.3%	7	-14
Cc1ccc(S(=O)(=O)N2CCOCC2)cc1NC(=O)CSc1nnc(N)s1	22%[15.4 µM]	-4%	-8%	0.4	-2.6%	4	-5
CCn1c(SCC(=O)Nc2nncs2)nnc1-c1ccco1	-25%	-12%	7%	4.4	.	2	-1
CCN1C(=O)c2ccccc2S(=O)(=O)c2ccc(C(=O)N3CCOCC3)cc21	-29%	7%	8%	3.6	1.7%	.	-7
CCc1csc(CNC(=O)C2CCC(=O)N(Cc3cccc(OC)c3)C2)n1 (stereo unspecified)	-69%[inhibitor]	.	.	.	-0.6%	.	-5
COc1ccccc1C(=O)Nc1ccnn1C1CCN(C/C=C/c2ccccc2)CC1	-116%[inhibitor]	-5%	8%	.	-22%	7	-29
N=c1c(S(=O)(=O)c2ccc(Br)cc2)cc2c(=O)n3ccccc3nc2n1Cc1ccccc1	-7%	3%	7%	?	-5.9%	0	-4
C/C(=N\Nc1nc(N2CCOCC2)nc(N2CCOCC2)n1)c1cccc([N+](=O)[O-])c1	6%[15.4 µM]	-6%	-24%	-0.7	.	-31	-6
COc1ccc(N=C2SC(CC(=O)Nc3ccccc3)C(=O)N2CCc2ccccn2)cc1 (stereo unspecified)	2%	-11%	-9%	.	-2.1%	-27	3
CCN(C(=O)COC(=O)c1ccc[nH]c1=O)c1cccc2ccccc12	12%	-2%	.	.	.	.	-4
O=C(NCc1ccc2c(c1)OCO2)C1CC(=O)N(c2ccc(O)cc2)C1 (stereo unspecified)	8%	8%	23%	-4.6	1.1%	4	10
O=C(NCc1ccc(Cl)cc1)C1CCCCN1S(=O)(=O)c1ccccc1 (stereo unspecified)	-9%[15.4 µM]	-3%	1%	-0.6	0.6%	-6	-4
NC(=O)Nc1ccccc1C(=O)NCCc1ccccc1	11%	0%	-12%	0.1	?	6	-13
CC(=O)Nc1c(C(=O)O)oc2ccccc12	5%	11%	12%	0.5	-5.5%	14	-4
COCCN1CC(C(=O)NCc2ccccc2-n2ccnc2C)CCC1=O (stereo unspecified)	2%[15.4 µM]	7%	5%	.	-0.9%	13	-16
COc1ccc(-n2c(SC(C)C(=O)N3CCOCC3)nc3ccccc3c2=O)cc1 (stereo unspecified)	43%	18%	-3%	.	-2.4%	-10	4
Cc1cccn2c(=O)c3cc(C#N)c(=NC(=O)c4ccco4)n(Cc4ccco4)c3nc12	?	-30%	?	-0.6	.	6	-3
Cc1ccccc1NC(=O)CN(C)S(=O)(=O)c1cccc2cccnc12	?	3%	9%	1.3	2.5%	.	-2
COc1cccc(N2CCN(C(=O)c3cc(-c4ccc(F)cc4)[nH]c3C)CC2)c1	6%[15.4 µM]	-20%	-8%	2.3	-0.8%	-3	-12
O=C(Cn1cncn1)NCc1ccccc1Br	-7%	3%	22%	9.5	0.2%	-1	-5
O=C1NN(c2ccccc2)C(=O)/C1=C/c1ccc(-c2ccc(Cl)c(C(=O)O)c2)o1	-1%[15.4 µM]	-4%	-4%	3.9	.	5	-4
O=C(CS(=O)CC(=O)Nc1cccc2c1CCCC2)Nc1ccc(F)cc1 (stereo unspecified)	?	3%	19%	-0.7	-6.4%	0	-4
CCOc1ccccc1N(C)C(=O)CCS(=O)(=O)c1ccc2c(c1)NC(=O)C(C)S2 (stereo unspecified)	-15%	-1%	12%	.	-1.4%	-24	2
COc1ccccc1N1CCN(S(=O)(=O)CCNC(=O)Cc2ccc(F)cc2)CC1	-14%	13%	.	.	1.7%	-13	-16
CC(C)C(C(=O)NCc1ccco1)N(C(=O)CNS(=O)(=O)c1ccc(Cl)cc1)C1CCCC1 (stereo unspecified)	-32%[inhibitor]	-12%	?	-0.2	-0.7%	-5	-6
CN(C)CC(=O)N1c2ccccc2Sc2ccc(Cl)cc21	-4%[15.4 µM]	-8%	21%	2.9	.	4	5
O=C1c2ccccc2C(=O)N1CCC#Cc1ccc2cc(CCCO)oc(=O)c2c1	.	-8%	.	.	51%	.	-3
CCOc1cc(C(=O)Nc2ccc(S(=O)(=O)Nc3cnc4ccccc4n3)cc2)cc(OCC)c1OCC	-11%	?	.	.	.	.	-3
O=C(NCc1cccnc1)c1cccc(Cl)c1	-29%	9%	3%	0.8	1.9%	23	-6
COc1cc(C)c(CN2CCC(n3nccc3NC(=O)C3CCOC3)CC2)cc1C (stereo unspecified)	16%	12%	17%	-2.0	1.4%	17	-23
Cc1nn(-c2ccccc2)c2c1C(c1ccc(Br)s1)C(C#N)=C(N)O2 (stereo unspecified)	29%	-7%	-12%	2.2	-0.8%	0	-6
COc1ccc(NC(=O)NNC(=O)C(C)Oc2ccc3ccccc3c2)cc1OC (stereo unspecified)	4%[15.4 µM]	-13%	8%	-8.7	-9.4%	14	-17
O=C(N/N=C/c1ccc([N+](=O)[O-])cc1)c1cc(C2CC2)nc2ccccc12	1%	-15%	21%	-4.3	1.1%	-4	3
CC(c1ccccc1)n1cc(C(=O)NCCCn2ccnc2)nn1 (stereo unspecified)	14%	8%	13%	-1.4	0.6%	-7	-30
CC(C)CCNC(=O)CN(Cc1ccc(F)cc1)C(=O)CCC(=O)Nc1ccccn1	-2%[15.4 µM]	-11%	-9%	-1.4	1.8%	-1	-12
CCOC(=O)C1(Cc2cccc(F)c2)CCN(CCCn2cccn2)CC1	0%	13%	12%	2.1	0.2%	?	-23
CC(C(=O)NCCC1=CCCCC1)N1C(=O)c2ccccc2C1=O (stereo unspecified)	-3%	2%	4%	7.3	0.3%	.	0
COc1cccc(CNCc2ccccn2)c1OC	-1%	7%	-11%	-0.2	0.3%	-3	-31
CCOC(=O)N1CCN(C(=O)c2ccc3c(c2)N(Cc2ccccc2)CCS3)CC1	-26%	?	2%	-1.5	4.3%	-3	-2
Cc1nc(Sc2ccc(Br)cc2)c(C#N)c(C)c1[N+](=O)[O-]	-2%[15.4 µM]	-7%	-1%	1.9	-1.4%	1	-7
Cc1ccc(S(=O)(=O)NCc2ccc(C(=O)N3CCc4ccccc4C3)cc2)cc1	24%	-20%	11%	2.1	28µM*	-4	-7
Cn1cccc1CC(=O)N/N=C/c1ccc(C(C)(C)C)cc1	-9%[15.4 µM]	-2%	7%	2.1	.	-7	-10
Cc1ccccc1OCC(=O)Nc1cc(S(=O)(=O)N2CCCCC2)ccc1N1CCN(C)CC1	-1%[15.4 µM]	6%	-3%	-0.6	.	4	-13
c1cc(CNCCNCc2ccncc2)ccn1	3%[15.4 µM]	-15%	.	.	-3.8%	.	-2
CCN1CCN(Cc2ccc(NC(=O)c3cc(NC(=O)c4cncc(-c5cccs5)c4)cc(OC)c3)cc2C(F)(F)F)CC1	24%	6%	?	9.2	?	4	-10&-28
CCCN(C(=O)C1CSC2(C)CCC(=O)N12)c1c(N)n(Cc2ccccc2)c(=O)[nH]c1=O (stereo unspecified)	-2%[15.4 µM]	4%	.	.	.	5	1
COc1cc(C)ccc1OCCOCCOc1cc(C)c(C)cc1Br	21%	-3%	-6%	2.7	-0.2%	4	-18
COc1ccc(NC(=O)c2ccccc2NC(=O)C2CC=CCC2C(=O)O)cc1 (stereo unspecified)	-48%[inhibitor]	-5%	6%	.	-2.5%	?	3
O=C1CCC(C(=O)OCc2ccccc2)N1 (stereo unspecified)	-53%[inhibitor]	12%	9%	-2.5	-0.8%	6	-7
CCN(c1ccccc1)c1ncnc2c1cnn2-c1ccccc1	23%	-20%	-12%	-2.1	?	3	-14
CCn1c2c(c3cc(Br)ccc31)CCC/C2=N\O	?	5%	-3%	-1.1	-3.7%	11	-3
Nc1nc(-c2ccc([N+](=O)[O-])cc2)c(C(=O)Nc2ccc(Cl)cc2)s1	-13%[15.4 µM]	7%	9%	1.4	.	4	-4
O=C(CN(C(=O)c1ccccc1Cl)N1C(=O)C2C3C=CC(C3)C2C1=O)c1cccs1 (stereo unspecified)	11%	-2%	22%	0.8	-1.0%	-7	-2

# A portion from further up, for reference:
SMILES	gsp agonist	gsp antag	Sfp inh	Menin MLL FP FL	ClpP mod	TRPV1 PAM	D2 PAM
CCCN(C(=O)C1CSC2(C)CCC(=O)N12)c1c(N)n(Cc2ccccc2)c(=O)[nH]c1=O (stereo unspecified)	-2%[15.4 µM]	4%	.	.	.	5	1
COc1cc(C)ccc1OCCOCCOc1cc(C)c(C)cc1Br	21%	-3%	-6%	2.7	-0.2%	4	-18
